Compound activity from PubChem BioAssay.
RGS16-Gao HTS = RGS16-Galphao interaction regulator (human). O15492+P09471. bead-based flow cytometry RGS16-Galphao binding, fluorescence; actives lie on both sides. binding response (% of control), % at 10 µM. 220,000 compounds, 0.38% hits. AID 1441;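 active means below 25% or above 175%, edge rows of some plates excepted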;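 further: Galphao activated by GDP with aluminum fluoride before binding; 100% = wells without compound and 0% = beads without RGS; some results beyond the cut were filed as inactive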
Insulin prom inh = TRM-6 insulin promoter activity inhibition; TRM-6 cells (human fetal islet line), insulin promoter-eGFP reporter, imaging; reporter expression induced with tamoxifen; inhibition, % at 2 µM; 130,000 compounds, 0.9% hits;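 active means inhibition above the mean plus 3 SD, with well images judged a real hit on visual review, cut at about 60% in these data, passing the limit was not always enough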
PKD1 inh = blocks activity of human protein kinase D1 | Q15139 | PKD1 kinase fluorescence polarization assay | inhibition, %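 (about 10 µM by stock and volumes)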 | 200,000 compounds, 0.056% hits;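 active means inhibition of 50% or more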;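 further: controls were vehicle for no effect and a reference inhibitor for full effect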
Target sequence (Q15139 whole entry, looked up): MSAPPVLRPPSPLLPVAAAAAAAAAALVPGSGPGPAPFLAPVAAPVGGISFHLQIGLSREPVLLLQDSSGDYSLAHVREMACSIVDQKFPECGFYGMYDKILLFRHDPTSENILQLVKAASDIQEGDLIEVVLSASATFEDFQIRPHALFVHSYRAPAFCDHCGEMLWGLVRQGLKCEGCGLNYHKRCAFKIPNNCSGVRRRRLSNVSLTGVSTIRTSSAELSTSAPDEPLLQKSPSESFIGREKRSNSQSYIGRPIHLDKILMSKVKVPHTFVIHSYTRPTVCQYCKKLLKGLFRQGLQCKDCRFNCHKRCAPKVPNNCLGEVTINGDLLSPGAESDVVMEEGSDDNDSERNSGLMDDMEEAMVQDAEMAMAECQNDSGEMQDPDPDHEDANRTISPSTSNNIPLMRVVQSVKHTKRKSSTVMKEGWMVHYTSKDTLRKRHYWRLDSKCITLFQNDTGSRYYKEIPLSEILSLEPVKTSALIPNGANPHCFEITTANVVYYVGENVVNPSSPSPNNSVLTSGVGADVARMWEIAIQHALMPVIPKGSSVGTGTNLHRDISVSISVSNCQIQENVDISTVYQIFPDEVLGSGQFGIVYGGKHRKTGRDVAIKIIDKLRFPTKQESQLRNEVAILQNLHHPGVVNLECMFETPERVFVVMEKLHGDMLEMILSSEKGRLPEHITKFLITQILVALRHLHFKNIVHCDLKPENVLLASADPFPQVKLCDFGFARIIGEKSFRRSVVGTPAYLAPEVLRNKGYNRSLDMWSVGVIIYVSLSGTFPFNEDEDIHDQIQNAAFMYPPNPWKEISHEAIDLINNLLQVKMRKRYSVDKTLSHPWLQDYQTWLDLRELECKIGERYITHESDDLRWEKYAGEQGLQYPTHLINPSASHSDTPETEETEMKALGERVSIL
GALR2 agonist = activates the human galanin receptor 2 | O43603 | GALR2-expressing cells, agonist activation read-out | activation, %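 (tested at 5 µM)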 | 140,000 compounds, 0.48% hits;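 active means above mean plus 3 SD of all compounds, about 5% in these data, not always enough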;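 further: 0% = vehicle buffer wells and 100% = reference agonist at full effect; tested in CHO reporter cells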
HSV replic up = HSV replication enhancement | HSV replication augmentation in cells, fold increase | maximum fold increase | 220,000 compounds, 0.005% hits;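 active means peak rise of 1.5-fold or more in the series; tested in PC3 cells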;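 further: first round at 10 µM; read as green reporter fluorescence; hits show the peak of a series up to 25 µM; 1 = signal of infected wells without compound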
Insulin prom inh cell count = further read-out of Insulin prom inh, marked with its call; normalized cell count, %; measured here: cell count, toxicity; reference of the scale not given here;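 cells exposed to compound for 48 h; stained nuclei by imaging scaled within each plate; lower means fewer cells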
HSV replic up primary fold = recorded beside HSV replic up, whose call it bears; fold increase; compound at 10 µM; measured here: primary screen fold increase 10 uM; tested in PC3 cells;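 GFP signal in the first replicate; 1 = infected wells without compound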
* hit, by the source's call; i = inactive; . = no result given. This is a random part of the collection. Share with any hit: about 1.3%.

SMILES	RGS16-Gao HTS	Insulin prom inh	Insulin prom inh cell count	PKD1 inh	GALR2 agonist	HSV replic up	HSV replic up primary fold
COCCNC(=S)N/N=C/c1ccc2c(c1)OCCO2	98	-13	140	-1	.	i	0.94
O=C(CCS(=O)(=O)c1ccc(Br)cc1)N1CCN(c2ccccc2)CC1	100	.	.	-12	-0.6	i	0.91
Cc1cc(C)nc(/N=c2/ssnc2Cl)c1	35	.	.	-4	-2.2	i	0.94
CCOC(=O)CCNc1n[nH]c(=O)[nH]c1=O	101	16	167	-7	0.4	i	0.89
COc1ccc(/C=N/NC(=O)OC(C)(C)C)cc1OC	101	.	.	1	-0.8	i	0.89
COc1ccccc1C(=O)n1nc(-c2ccco2)nc1SC	100	10	89	-5	.	i	0.94
Cc1ccc(CNC(=O)C2CC(c3cccc([N+](=O)[O-])c3)=NO2)cc1 (configuration not stated)	98	31	138	3	-0.8	i	0.86
CC1(C)CC(=O)C2=C(C1)N(Cc1ccco1)C(=O)C2(NC(=O)c1ccc(Cl)cc1Cl)C(F)(F)F (configuration not stated)	99	-26	150	-5	-2.3	i	0.94
Cc1cc(/C=C(\C#N)c2nc3ccccc3[nH]2)c(C)n1C	102	20	135	6	0.6	i	0.93
Cc1ccc(NC2=NCCCCC2)cc1	100	48	83	-5	-2.7	i	0.86
CC(C)Cc1nc2sc3c(=O)[nH]cnc3c2c2c1CCCC2	102	7	116	3	.	i	1
CCc1n[n+](CC(=O)c2ccccc2)c(N)s1	99	.	.	-3	.	i	0.92
CCCCCN1C(=O)Cn2c(nc3ccccc3c2=O)C1C (configuration not stated)	98	-57	98	-12	.	i	0.98
O=C(c1cc(=O)c2ccccc2o1)N1CCN(c2cccc(Cl)c2)CC1	98	.	.	3	.	i	0.97
CC(=O)NC1(C(F)(F)F)C(=O)N(Cc2ccccc2)C2=C1C(=O)CC(C)(C)C2 (configuration not stated)	103	-42	75	2	-1.0	i	1
C=CCSc1nnc(NC(=O)c2ccc(Cl)nc2)s1	99	-31	62	1	-2.4	i	0.9
CN(C)CCNC(=O)c1cc(Sc2ccc(F)cc2)nc2ccccc12	103	.	.	-4	.	i	0.98
Cn1c(=O)n(C)c2cc(/C=C3/SC(=O)N(CC(=O)N4CCOCC4)C3=O)ccc21	83	-79	88	2	-1.6	i	0.92
O=c1c(Cl)c(N/N=C/c2ccc(Br)cc2)cnn1-c1ccccc1	134	13	139	2	-2.2	.	.
Cc1ccc(CSc2nnc(CCNC(=O)OC(C)(C)C)o2)cc1	85	.	.	.	.	i	1.1
Nc1ccc2c(c1Cl)C(=O)c1ccc(N)c(Cl)c1C2=O	101	.	.	.	.	i	0.97
CCOC(=O)N1CCN(c2ncc(C(F)(F)F)cc2Cl)CC1	100	.	.	-4	.	i	1
COc1ccc(CN2CCN(C(=O)CC(C)C)CC2)cc1OC	135	-13	99	-6	-2.7	i	1
Cc1cc(Nc2nc3ccccc3nc2Cl)n(-c2ccc([N+](=O)[O-])cc2)n1	65	57	87	-7	-0.9	i	0.59
N#CC1=C(N)Oc2n[nH]c(-c3ccncc3)c2C1c1ccsc1 (configuration not stated)	104	-3	146	5	-0.7	i	1.2
CCCCOP(=O)(c1ccc(N(C)C)cc1)C(O)c1ccncc1 (configuration not stated)	101	-10	65	8	-1.5	i	0.94
CNC(=S)N1N=C(c2ccccc2)CC1c1ccc(OC)c(OC)c1 (configuration not stated)	114	.	.	0	0.0	i	1.1
CCCCSc1nnc(-c2ccc(NC(=O)CCc3ccccc3)cc2)n1C	110	11	99	-4	-2.0	i	0.89
COc1cc(C2C(C#N)=C(N)Oc3cc(C)n(CCc4ccccc4)c(=O)c32)cc2c1OCO2 (configuration not stated)	110	-19	119	-10	0.8	i	0.89
CCN(CC)CCCNS(=O)(=O)c1ccc(OC)cc1	101	-160	63	11	-2.7	i	0.87
CC(=O)c1c(C(C)=O)c(C)n(Cc2ccccc2)c1C	95	40	141	10	-0.8	i	0.96
COc1cc2c(cc1OC)C(C(=O)NCc1ccco1)C1c3ccccc3CCN1C2=O (configuration not stated)	103	-2	103	-1	0.1	i	1
Cn1c(CNC(=O)c2ccco2)nnc1SCC(=O)Nc1ccc(Br)cc1F	110	.	.	0	-2.1	i	0.91
CCc1nnc(NC(=O)c2cccc(OC)c2)s1	98	29	77	-2	-2.9	i	0.91
CCC(C)NC(=O)CN(c1ccc(OC)cc1)S(=O)(=O)c1ccc(NC(C)=O)cc1 (configuration not stated)	102	.	.	1	-1.6	i	0.98
COc1ccc(N2CCN(S(=O)(=O)c3ccc(C(=O)NCc4ccco4)cc3)CC2)cc1	90	-23	136	7	-1.8	i	0.88
N=c1n(CCN2CCCCC2)c2ccccc2n1CC(=O)c1cccs1	99	.	.	.	.	i	0.67
COc1ccc(C2OCC3(CO2)SC(=O)NC3=O)cc1OC (configuration not stated)	96	-38	126	7	.	i	0.91
Cc1nc2cc(NC(=O)Nc3nccs3)ccc2n1C	103	50	104	3	-2.8	i	1
O=S(=O)(c1ccccc1)c1nc(-c2ccccc2Cl)oc1NCCN1CCOCC1	99	7	99	2	-0.5	i	1.1
Cc1ccc(-n2nnnc2SCC(=O)Nc2ncc(Cc3ccccc3Cl)s2)cc1	70	.	.	2	-1.6	i	0.82
Cc1ccccc1NCC(=O)N/N=C\c1ccc2c(c1)OCO2	103	.	.	-6	.	i	0.87
NS(=O)(=O)c1ccc(Cl)cc1[N+](=O)[O-]	93	.	.	.	.	i	1
NC(=O)C1=C[C@H](c2ccccc2)C[C@H](OCc2ccc(CO)cc2)O1	98	.	.	0	.	i	0.91
CCc1ccc(NC(=O)CCCN2C(=S)NC(C)(C)CC2C)cc1 (configuration not stated)	103	-209	84	-3	.	i	0.88
CCOC(=O)c1c(N)sc(N)c1C(=O)OCC	79	14	96	-1	-2.5	i	1
Cc1cccc(/C=N/NC(=O)c2cc(-c3cccnc3)nc3c2c(C)nn3-c2ccccc2)c1	125	.	.	2	-0.1	i	0.99
COc1cccc(C(=O)N/N=C/c2ccc(Oc3ccc([N+](=O)[O-])cn3)c(OC)c2)c1	100	42	91	11	0.3	i	0.74
Brc1ccccc1/C=N/Nc1ccc2ccccc2n1	105	.	.	6	0.2	i	0.93
COCc1c(C(=O)OCC(=O)c2c(N)n(CC(C)C)c(=O)n(C)c2=O)oc2ccccc12	122	.	.	-8	-2.3	i	0.92
COc1ccc(NS(=O)(=O)c2ccc(N3CCOCC3)c(NC(=O)c3ccc(F)cc3)c2)cc1	105	-33	141	-11	1.2	i	0.98
CC(C)(C)NC(=O)COC(=O)c1ccccc1Oc1ccccc1	97	.	.	.	.	i	1
Cc1nn(-c2ccccc2)c(Cl)c1C(=O)Nc1nnc(C2CCCC2)s1	101	.	.	-4	-0.4	i	0.84
CN(C)c1ccc(NC(=O)CSc2nc3c(c(=O)[nH]2)CCCC3)cc1	101	.	.	2	-0.9	i	1.2
Oc1c(Cl)cc(Cl)c(Cl)c1Cc1c(O)c(Cl)cc(Cl)c1Cl	103	10	134	6	-0.6	i	0.66
CCOC(=O)c1c(/N=C/C2=C(O)CC(C)(C)CC2=O)sc(C)c1C	93	.	.	-2	0.3	i	0.92
COc1ccc(S(=O)(=O)N(C)c2ccc(C(=O)N3CCCCC3)cc2)cc1OC	107	.	.	.	.	i	1
O=C(CCSCc1cccc(Cl)c1)NCCC1=CCCCC1	97	23	95	7	0.2	i	1
O=C1CC2C(=O)NCCN2C(=NC(=O)c2ccc(Cl)cc2)N1 (configuration not stated)	59	17	71	4	.	i	0.97
COc1ccc2cc(CCNC(=O)C3CCCC3)c(=O)[nH]c2c1	228	40	141	-10	-1.2	i	1.1
Further records
SMILES	RGS16-Gao HTS	Insulin prom inh	Insulin prom inh cell count	PKD1 inh	GALR2 agonist	HSV replic up	HSV replic up primary fold
O=C(Nc1cccc2ccccc12)c1cc2c(cc1Br)OCO2	101	.	.	.	.	i	1.1
COc1ccc(NC(=O)c2ccc(S(=O)(=O)N3CCCCCC3)cc2)c(OC)c1	83	.	.	.	.	i	0.83
CCOC(=O)C1=C(O)/C(=C/c2cc(OC)c(OC)c(OC)c2)N=C1C	104	26	110	-9	0.1	i	0.9
COC(=O)c1cn(CCOc2ccccc2)c2ccccc12	66	-79	121	-7	-2.4	i	0.9
COc1ccc(CNC(=O)CS(=O)Cc2nc(-c3ccccc3C)oc2C)cc1 (configuration not stated)	99	.	.	-2	-0.9	i	0.97
CCS(=O)(=O)C(=C(Nc1ccc(OC)cc1)Nc1ccc(OC)cc1)S(=O)(=O)CC	94	.	.	-1	1.4	i	0.72
COC(=O)c1ccc(C2c3c(oc4ccc(Cl)cc4c3=O)C(=O)N2CCN2CCOCC2)cc1 (configuration not stated)	99	.	.	.	.	i	0.64
COc1ccc(S(=O)(=O)N2CCN(C(=O)c3c(-c4ccccc4)noc3C)CC2)cc1	96	5	153	2	-5.3	i	0.97
C#CCOCCOCCOCCNc1nc(N2CCN(C(=O)Cn3cc(CCCCN)nn3)CC2)nc(N2CCN(C(=O)Cn3cc(CCCCN)nn3)CC2)n1	105	-105	108	-1	-1.4	i	0.93
Cc1cc(NC(=O)c2noc3c2CCCC3)no1	101	9	93	-15	-0.5	i	1.1
Cc1ccc(-n2nnnc2SC(C)C(=O)NCC(=O)Nc2ccc(F)c(F)c2F)c(C)c1 (configuration not stated)	96	0	98	-2	-1.7	i	1.1
O=C(N/N=C/c1ccc(Cl)cc1Cl)C(=O)NC1CC1	99	.	.	0	.	i	0.93
CCOc1ccc(C2=Nn3c(nnc3-c3ccccc3OC)SC2)cc1	99	.	.	8	5.3*	i	0.51
O=C(COC(=O)CNC(=O)c1ccc(Cl)cc1Cl)Nc1ccc(N2CCOCC2)cc1	96	.	.	1	.	i	0.96
Cc1cccc2cc(-c3ccccc3)c(-c3ccccc3)c[n+]12	93	3	109	-4	-1.0	i	0.99
CC1(C)C(=O)OC(C(=O)c2ccc(C(C)(C)C)cc2)C(C)(C)C1=O (configuration not stated)	104	-30	108	-3	-0.9	i	0.96
CCc1cccc(CC)c1NC(=S)NC(C)c1ccccc1 (configuration not stated)	97	40	94	-6	-2.7	i	0.85
CC1CN(C(=O)c2ccc(N3CCCCC3)c([N+](=O)[O-])c2)CC(C)O1 (configuration not stated)	102	31	116	3	-2.0	i	0.95
COc1ccc(C2=C(SC)CC2=NC(C)(C)C)cc1	66	-6	93	-15	0.5	i	0.95
COc1ccc2nc(N=Nc3ccc(N(C)C)cc3)sc2c1	99	28	125	-3	-5.5	.	.
CC(C)c1ccc2[nH]c3c(c2c1)CCC/C3=N\NC(=O)c1ccncc1	101	.	.	.	.	i	0.7
CCN(CC)C(=O)c1sc(NC(=O)C(C)C)c(C#N)c1C	100	.	.	-8	.	i	0.93
Cc1ccc(C(=O)c2ccccc2C(=O)O)cc1C	96	-27	75	-3	.	i	1.1
COc1cc(NC(=O)c2ccco2)c(OC)cc1NC(=O)CSc1nnc(-c2cccs2)n1C	72	.	.	-9	0.4	i	0.94
CCNc1ccc(C(=O)OCC(=O)NC(=O)NCC(C)C)cc1[N+](=O)[O-]	91	.	.	-1	.	i	0.87
CCNc1nc(NCc2ccccc2)nc(SCC(=O)Nc2ccccc2)n1	105	.	.	-1	0.2	i	1
COCc1nc(-c2cc(Br)ccc2OC)no1	103	38	108	0	-2.2	i	0.91
O=C(CSc1nnc(-c2ccncc2)n1CC1CCCO1)Nc1nccs1 (configuration not stated)	101	33	116	-5	-2.1	i	0.97

Entries from the list above that contain a thiophene ring, fused or not (7):
SMILES	RGS16-Gao HTS	Insulin prom inh	Insulin prom inh cell count	PKD1 inh	GALR2 agonist	HSV replic up	HSV replic up primary fold
CC(C)Cc1nc2sc3c(=O)[nH]cnc3c2c2c1CCCC2	102	7	116	3	.	i	1
N#CC1=C(N)Oc2n[nH]c(-c3ccncc3)c2C1c1ccsc1 (configuration not stated)	104	-3	146	5	-0.7	i	1.2
N=c1n(CCN2CCCCC2)c2ccccc2n1CC(=O)c1cccs1	99	.	.	.	.	i	0.67
CCOC(=O)c1c(N)sc(N)c1C(=O)OCC	79	14	96	-1	-2.5	i	1
CCOC(=O)c1c(/N=C/C2=C(O)CC(C)(C)CC2=O)sc(C)c1C	93	.	.	-2	0.3	i	0.92
CCN(CC)C(=O)c1sc(NC(=O)C(C)C)c(C#N)c1C	100	.	.	-8	.	i	0.93
COc1cc(NC(=O)c2ccco2)c(OC)cc1NC(=O)CSc1nnc(-c2cccs2)n1C	72	.	.	-9	0.4	i	0.94
